From PubChem
UUG fidelity: yeast start codon fidelity modulation. S. cerevisiae UUG-firefly luciferase reporter, luminescence/redox ratio. activity score, % at 18.7 µM. 0.13% of 350,000 active. AID 602363;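 active = replicate mean at a twofold rise or more, about +100% in these data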;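 also: firefly luciferase made from a UUG start codon reports start codon fidelity; reporter light over untreated wells divided by growth signal over untreated wells; some hits fall short of that in this replicate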
HIV Env fusion: HIV envelope-mediated fusion inhibition | inhibition, % at 12.3 µM | HeLa-JRFL Env/CEM21 cell fusion, luciferase | 1.1% of 360,000 active | AID 651610;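 active = mean replicate inhibition score of at least 50 and every replicate individually at or above 50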;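 also: 0% = plate neutral controls and 100% = maraviroc near 300 nM; one replicate is shown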
An asterisk follows results filed as active; [ ] = another dose, or the depositor's remark. A portion of the library. The share of hits here may be higher or lower than overall.

HIV Env fusion | UUG fidelity | mol
12[16.7 µM] | -6 | C[C@@H]1CN([C@@H](C)CO)C(=O)Cc2cc(NC(=O)Nc3ccc(F)cc3)ccc2O[C@H]1CN(C)C(=O)Nc1ccc(C(F)(F)F)cc1
14[16.7 µM] | -6 | Cc1noc(C)c1NC(=O)N(C)C[C@H]1Oc2c(NS(=O)(=O)c3ccc(Cl)cc3)cccc2C(=O)N([C@H](C)CO)C[C@@H]1C
-21[16.7 µM] | 2 | O=C(NCC[C@@H]1CC[C@H](NS(=O)(=O)c2cccc(Cl)c2)[C@@H](CO)O1)c1cnccn1
-13[16.7 µM] | 0 | Cc1noc(C)c1NC(=O)N(C)C[C@H]1Oc2ccc(NS(=O)(=O)c3cccs3)cc2CC(=O)N([C@@H](C)CO)C[C@H]1C
8[16.7 µM] | 6 | CCCC(=O)Nc1ccc2c(c1)OC[C@H](C)N(C(=O)C1CCCC1)C[C@H](C)[C@H](OC)CN(C)C2=O
-7[16.7 µM] | -8 | CC(C)C#Cc1ccc2c(c1)O[C@H](CN(C)Cc1ccncc1)[C@H](C)CN([C@@H](C)CO)S2(=O)=O
43[16.7 µM] | -1 | COC(=O)[C@@]1(Cc2ccccc2N=[N+]=[N-])N=C(c2ccc(OCCCO)cc2)O[C@H]1c1ccccc1CN=[N+]=[N-]
-9[16.7 µM] | -1 | O=C(NCC[C@H]1CC[C@@H](NC(=O)C2CC2)[C@@H](CO)O1)Nc1ccc(C(F)(F)F)cc1
-1[16.7 µM] | -9 | COc1ccc(NC(=O)Nc2ccc3c(c2)CC(=O)N([C@@H](C)CO)C[C@@H](C)[C@H](CN(C)C(=O)Nc2cccc4ccccc24)O3)cc1
-8[16.7 µM] | -1 | C/C=C/c1ccc2c(c1)O[C@@H](CN(C)C(=O)NC1CCCCC1)[C@@H](C)CN([C@H](C)CO)S2(=O)=O
18[16.7 µM] | -16 | C[C@@H]1CN([C@@H](C)CO)C(=O)c2cc(NC(=O)Nc3ccc4c(c3)OCO4)ccc2O[C@@H](C)CCCCO[C@H]1CN(C)C(=O)Nc1ccc(C(F)(F)F)cc1
4[16.7 µM] | -12 | O=C(NCC[C@H]1CC[C@H](NC(=O)C2CCCC2)[C@H](CO)O1)c1ccc(F)cc1
-1[16.7 µM] | -6 | Cc1ccc(S(=O)(=O)N(C)C[C@H]2Oc3ccc(NC(=O)NC(C)C)cc3C(=O)N([C@H](C)CO)C[C@H]2C)cc1
-61[16.7 µM] | 11 | Cc1ccc(S(=O)(=O)N(C)C[C@@H]2OCCCC[C@H](C)Oc3ccc(NS(=O)(=O)c4cccs4)cc3C(=O)N([C@H](C)CO)C[C@@H]2C)cc1
-4[16.7 µM] | 3 | Cc1noc(C)c1S(=O)(=O)Nc1ccc2c(c1)CC(=O)N([C@H](C)CO)C[C@H](C)[C@@H](CN(C)S(=O)(=O)c1ccc(Cl)cc1)O2
8[16.7 µM] | -9 | C/C=C/c1ccc2c(c1)O[C@H](CN(C)Cc1cccc(F)c1)[C@@H](C)CN([C@H](C)CO)S2(=O)=O
5[16.7 µM] | 28 | CCCN(C)C[C@H]1OCCCC[C@H](C)Oc2ccc(NC(=O)C3CCCCC3)cc2C(=O)N([C@H](C)CO)C[C@H]1C
-11[16.7 µM] | -13 | CCCC(=O)Nc1ccc2c(c1)C(=O)N(C)[C@H]1CC[C@H](CC(=O)NCCCN(C)C)O[C@H]1CO2
-5[16.7 µM] | 28 | CC(=O)N(C)C[C@@H]1Oc2cc(-c3ccc(C#N)cc3)ccc2S(=O)(=O)N([C@H](C)CO)C[C@@H]1C
12[16.7 µM] | -10 | Cc1ccccc1-c1ccc2c(c1)O[C@H](CN(C)Cc1ccncc1)[C@H](C)CN([C@H](C)CO)S2(=O)=O
5[16.7 µM] | 9 | COc1ccc(-c2ccc3c(c2)O[C@H](CN(C)CC2CCOCC2)[C@H](C)CN([C@H](C)CO)S3(=O)=O)cc1
9[16.7 µM] | 9 | C[C@@H]1CCCCO[C@H](CN(C)S(=O)(=O)c2ccccc2)[C@@H](C)CN([C@@H](C)CO)C(=O)c2cc(NC(=O)Cc3ccccc3)ccc2O1
-7[16.7 µM] | -3 | O=C(N[C@@H]1CC[C@@H](CCNS(=O)(=O)c2ccc(Cl)cc2)O[C@H]1CO)c1cccnc1
1[16.7 µM] | -1 | C/C=C/c1ccc2c(c1)O[C@@H](CN(C)C(=O)Nc1ccc(C(F)(F)F)cc1)[C@@H](C)CN([C@@H](C)CO)S2(=O)=O
-9[16.7 µM] | -5 | C[C@@H]1CN([C@H](C)CO)C(=O)c2cccc(NC(=O)c3nc4ccccc4s3)c2O[C@@H]1CN(C)S(=O)(=O)c1ccc(F)cc1
13[16.7 µM] | -6 | O=C(Nc1ccc(F)cc1)N[C@H]1CC[C@H](CCNS(=O)(=O)c2ccccc2F)O[C@H]1CO
-5[16.7 µM] | -13 | C[C@H]1CN([C@@H](C)CO)C(=O)Cc2cc(NS(=O)(=O)c3ccc(F)cc3)ccc2O[C@H]1CN(C)S(C)(=O)=O
5[16.7 µM] | -6 | COc1ccc(-c2ccc([C@H]3[C@H](C#N)N[C@@H]3CO)cc2)cc1
11[16.7 µM] | 12 | C[C@H](CO)N1C[C@H](C)[C@H](CN(C)Cc2ccccc2F)Oc2ncc(/C=C/c3ccccc3)cc2C1=O
-6[16.7 µM] | 12 | C[C@@H]1CN([C@H](C)CO)C(=O)c2cc(C#CC3CCCC3)cnc2O[C@@H]1CN(C)C(=O)C1CCC1
3[16.7 µM] | -7 | CO[C@@H]1CN(C)C(=O)c2ccc(NC(=O)Nc3ccc(F)cc3)cc2OC[C@H](C)NC[C@H]1C
-43[16.7 µM] | -12 | C[C@@H]1CN([C@@H](C)CO)S(=O)(=O)c2ccc(Br)cc2O[C@@H]1CN(C)CC1CCOCC1
13[16.7 µM] | 0 | CC(C)NC(=O)N(C)C[C@H]1Oc2cc(C#Cc3ccc(F)cc3)ccc2S(=O)(=O)N([C@H](C)CO)C[C@@H]1C
-4[16.7 µM] | -3 | C[C@@H]1CN([C@@H](C)CO)C(=O)c2cc(NC(=O)Nc3ccc4c(c3)OCO4)ccc2O[C@@H](C)CCCCO[C@@H]1CN(C)C(=O)c1ccccc1
14[16.7 µM] | 31 | Cc1noc(C)c1NC(=O)Nc1ccc2c(c1)C(=O)N([C@@H](C)CO)C[C@H](C)[C@H](CN(C)C)OCCCC[C@H](C)O2
32[16.7 µM] | 7 | C[C@H]1CN([C@@H](C)CO)C(=O)c2cc(NC(=O)C3CCCCC3)ccc2O[C@@H]1CN(C)Cc1ccccc1
-8[16.7 µM] | -17 | COc1ccccc1S(=O)(=O)N[C@H]1C=C[C@H](CC(=O)N2CCN(C)CC2)O[C@H]1CO
-11[16.7 µM] | 3 | COc1ccc(NC(=O)N(C)C[C@@H]2Oc3ccc(NC(=O)Cc4ccccc4)cc3CC(=O)N([C@H](C)CO)C[C@H]2C)cc1
-11[16.7 µM] | 9 | C[C@@H]1CCCCO[C@H](CN(C)C)[C@H](C)CN([C@H](C)CO)C(=O)c2cc(NC(=O)Cc3ccccc3)ccc2O1
11[16.7 µM] | -10 | C[C@@H]1CN([C@@H](C)CO)C(=O)c2cc(NC(=O)C3CCCCC3)ccc2O[C@@H]1CN(C)C

Pulled by compound from the list above, two records:
HIV Env fusion | UUG fidelity | mol
-5[16.7 µM] | -13 | C[C@H]1CN([C@@H](C)CO)C(=O)Cc2cc(NS(=O)(=O)c3ccc(F)cc3)ccc2O[C@H]1CN(C)S(C)(=O)=O
-11[16.7 µM] | 9 | C[C@@H]1CCCCO[C@H](CN(C)C)[C@H](C)CN([C@H](C)CO)C(=O)c2cc(NC(=O)Cc3ccccc3)ccc2O1

(next part)
HIV Env fusion | UUG fidelity | mol
-5[16.7 µM] | -6 | C[C@@H](O)C#Cc1cnc2c(c1)C(=O)N([C@@H](C)CO)C[C@H](C)[C@@H](CN(C)Cc1cccc(F)c1)O2
-9[16.7 µM] | 0 | CCCC#Cc1cnc2c(c1)C(=O)N([C@@H](C)CO)C[C@@H](C)[C@@H](CN(C)C(=O)CN1CCOCC1)O2
-17[16.7 µM] | -10 | COc1ccc(CN2CCC(C)=CC2C)cc1 (stereo unspecified)
1[16.7 µM] | 8 | C[C@@H]1CN([C@H](C)CO)C(=O)c2cccc(NC(=O)Nc3ccc(F)cc3)c2O[C@H]1CN(C)Cc1ccncc1
7[16.7 µM] | -7 | COCCNC(=O)C[C@H]1CC[C@@H](NS(=O)(=O)c2ccc(C)cc2)[C@@H](CO)O1
27[16.7 µM] | 15 | CC(=O)N(C)C[C@@H]1Oc2cc(C#CCC3CCCC3)ccc2S(=O)(=O)N([C@H](C)CO)C[C@@H]1C
-6[16.7 µM] | 0 | COc1ccccc1C#Cc1ccc([C@@H]2[C@@H](C#N)N(C(=O)C3CCC3)[C@H]2CO)cc1
-19[16.7 µM] | -2 | C[C@H](CO)N1C[C@H](C)[C@H](CN(C)C(=O)c2ccncc2)OCCCC[C@H](C)Oc2ccc(NS(=O)(=O)c3cccs3)cc2C1=O
11[16.7 µM] | -20 | COCCNC(=O)C[C@@H]1C[C@H]2c3cc(NC(=O)CC4CC4)ccc3O[C@H]2[C@@H](CO)O1
-14[16.7 µM] | 27 | C[C@H](CO)N1C[C@H](C)[C@@H](CN(C)C(=O)C2CCCCC2)OCCCC[C@H](C)Oc2ccc(NC(=O)C3CCCCC3)cc2C1=O
-11[16.7 µM] | -10 | Cc1ccc(S(=O)(=O)N[C@@H]2CC[C@@H](CCNC(=O)C3CCCCC3)O[C@H]2CO)cc1
7[16.7 µM] | -18 | COc1ccc(CNC(=O)C[C@H]2C=C[C@@H](NC(=O)CN(C)C)[C@@H](CO)O2)cc1
-317[16.7 µM] | -8 | C[C@H]1CN([C@@H](C)CO)C(=O)c2cc(NC(=O)NC3CCCCC3)ccc2O[C@H]1CN(C)C(=O)Nc1cccc2ccccc12
56*[16.7 µM] | 39 | C[C@@H]1CCCCO[C@@H](CN(C)Cc2ccc(C(F)(F)F)cc2)[C@H](C)CN([C@@H](C)CO)C(=O)c2cc(NC(=O)c3ccccc3)ccc2O1
-10[16.7 µM] | -8 | C[C@@H]1CCCCO[C@@H](CN(C)C(=O)c2ccncc2)[C@@H](C)CN([C@H](C)CO)C(=O)c2cc(NS(=O)(=O)c3cn(C)cn3)ccc2O1
30[16.7 µM] | -16 | C[C@H]1CCCCO[C@H](CN(C)C(=O)Nc2ccc(F)cc2)[C@@H](C)CN([C@@H](C)CO)C(=O)c2cc(NC(=O)Nc3ccc(C(F)(F)F)cc3)ccc2O1
1[16.7 µM] | 22 | CCCc1cn(CC[C@@H]2CC[C@H](NC(=O)C3CCCCC3)[C@@H](CO)O2)nn1
0[16.7 µM] | -1 | COc1ccc(S(=O)(=O)N[C@@H]2C=C[C@@H](CC(=O)N3CCN(c4ccccc4)CC3)O[C@@H]2CO)cc1
12[16.7 µM] | -12 | C[C@H]1CN([C@@H](C)CO)C(=O)c2cc(-c3ccc(F)cc3)cnc2O[C@H]1CN(C)Cc1ccc(F)cc1
8[16.7 µM] | 7 | C[C@H]1CN([C@@H](C)CO)S(=O)(=O)c2ccc(C3=CCCC3)cc2O[C@H]1CN(C)C(=O)c1cnccn1
1[16.7 µM] | -3 | COc1ccccc1-c1cn(CC[C@H]2CC[C@H](NC(=O)Cc3ccccn3)[C@H](CO)O2)nn1
22[16.7 µM] | 3 | Cc1noc(C)c1NC(=O)N(C)C[C@@H]1Oc2ccc(NC(=O)Nc3ccc(C(F)(F)F)cc3)cc2CC(=O)N([C@@H](C)CO)C[C@@H]1C
8[16.7 µM] | -6 | C[C@H](CO)N1C[C@H](C)[C@H](CN(C)C(=O)CN(C)C)Oc2cc(-c3ccc(C#N)cc3)ccc2S1(=O)=O
-32[16.7 µM] | -9 | COc1ccc(NC(=O)Nc2ccc3c(c2)C(=O)N([C@H](C)CO)C[C@H](C)[C@@H](CN(C)Cc2ccc(C(=O)O)cc2)O3)cc1
6[16.7 µM] | -4 | O=C(C[C@H]1C[C@@H]2c3cc(NC(=O)CC4CC4)ccc3O[C@@H]2[C@H](CO)O1)NCC(F)(F)F
0[16.7 µM] | -7 | CO[C@@H]1CN(C)C(=O)c2cc(NC(=O)Nc3ccccc3Cl)ccc2OC[C@@H](C)NC[C@@H]1C
5[16.7 µM] | -2 | COc1ccc(NC(=O)N[C@@H]2CC[C@@H](CCNC(=O)Cc3ccncc3)O[C@@H]2CO)cc1
-41[16.7 µM] | 9 | C[C@H](CO)N1C[C@H](C)[C@@H](CN(C)C(=O)Nc2ccc(F)cc2)Oc2ccc(NC(=O)Nc3ccc4c(c3)OCO4)cc2CC1=O
-5[16.7 µM] | -10 | O=C(C[C@@H]1CC[C@@H](NC(=O)C2CC2)[C@@H](CO)O1)NC1CCC1
35[16.7 µM] | 6 | C[C@H](CO)N1C[C@H](C)[C@@H](CN(C)Cc2ccc(F)cc2)Oc2ncc(-c3ccccc3F)cc2C1=O
3[16.7 µM] | -6 | CCCC(=O)Nc1ccc2c(c1)C(=O)N(C)C[C@@H](OC)[C@@H](C)CN(CCC)[C@H](C)CO2
3[16.7 µM] | -2 | COc1ccccc1C#Cc1ccc([C@@H]2[C@@H](CO)N(C(=O)C3CCC3)[C@H]2C#N)cc1

Some of these compounds in order of their number in UUG fidelity, ascending:
canonical_smiles,HIV Env fusion,UUG fidelity
C[C@H]1CN([C@@H](C)CO)C(=O)Cc2cc(NS(=O)(=O)c3ccc(F)cc3)ccc2O[C@H]1CN(C)S(C)(=O)=O,-5[16.7 µM],-13
C/C=C/c1ccc2c(c1)O[C@H](CN(C)Cc1cccc(F)c1)[C@@H](C)CN([C@H](C)CO)S2(=O)=O,8[16.7 µM],-9
C[C@@H]1CCCCO[C@@H](CN(C)C(=O)c2ccncc2)[C@@H](C)CN([C@H](C)CO)C(=O)c2cc(NS(=O)(=O)c3cn(C)cn3)ccc2O1,-10[16.7 µM],-8

Complete entries from above. Screens in order: HIV Env fusion | UUG fidelity
COc1ccccc1C#Cc1ccc([C@@H]2[C@@H](CO)N(C(=O)C3CCC3)[C@H]2C#N)cc1 is listed as 3[16.7 µM] | -2
O=C(C[C@H]1C[C@@H]2c3cc(NC(=O)CC4CC4)ccc3O[C@@H]2[C@H](CO)O1)NCC(F)(F)F is listed as 6[16.7 µM] | -4
